# From PubChem BioAssay
# EPAC2 antag: validation of human EPAC2 antagonists; AID 1645886; EPAC2 Rap1B BODIPY-GDP exchange, fluorescence; Potency, µM (top dose mostly 112 µM), for inactives: at the top dose activity, negative = inhibition, actives largely listed as inhibitors; actives 1.7% (n = 16,000); active means well fitted inhibition curve with a large enough effect; inconclusive means small, poorly fitted or top-dose-only effect; inactive means no such curve, though single readings can be large or run the other way;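 further: 100% = activation by cAMP agonist control; nearly all actives have a fitted effect of over 40% in size; the record reuses the description of the EPAC1 agonist screen; inactives centre near -10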
# Target sequence (Q8WZA2 whole entry, looked up): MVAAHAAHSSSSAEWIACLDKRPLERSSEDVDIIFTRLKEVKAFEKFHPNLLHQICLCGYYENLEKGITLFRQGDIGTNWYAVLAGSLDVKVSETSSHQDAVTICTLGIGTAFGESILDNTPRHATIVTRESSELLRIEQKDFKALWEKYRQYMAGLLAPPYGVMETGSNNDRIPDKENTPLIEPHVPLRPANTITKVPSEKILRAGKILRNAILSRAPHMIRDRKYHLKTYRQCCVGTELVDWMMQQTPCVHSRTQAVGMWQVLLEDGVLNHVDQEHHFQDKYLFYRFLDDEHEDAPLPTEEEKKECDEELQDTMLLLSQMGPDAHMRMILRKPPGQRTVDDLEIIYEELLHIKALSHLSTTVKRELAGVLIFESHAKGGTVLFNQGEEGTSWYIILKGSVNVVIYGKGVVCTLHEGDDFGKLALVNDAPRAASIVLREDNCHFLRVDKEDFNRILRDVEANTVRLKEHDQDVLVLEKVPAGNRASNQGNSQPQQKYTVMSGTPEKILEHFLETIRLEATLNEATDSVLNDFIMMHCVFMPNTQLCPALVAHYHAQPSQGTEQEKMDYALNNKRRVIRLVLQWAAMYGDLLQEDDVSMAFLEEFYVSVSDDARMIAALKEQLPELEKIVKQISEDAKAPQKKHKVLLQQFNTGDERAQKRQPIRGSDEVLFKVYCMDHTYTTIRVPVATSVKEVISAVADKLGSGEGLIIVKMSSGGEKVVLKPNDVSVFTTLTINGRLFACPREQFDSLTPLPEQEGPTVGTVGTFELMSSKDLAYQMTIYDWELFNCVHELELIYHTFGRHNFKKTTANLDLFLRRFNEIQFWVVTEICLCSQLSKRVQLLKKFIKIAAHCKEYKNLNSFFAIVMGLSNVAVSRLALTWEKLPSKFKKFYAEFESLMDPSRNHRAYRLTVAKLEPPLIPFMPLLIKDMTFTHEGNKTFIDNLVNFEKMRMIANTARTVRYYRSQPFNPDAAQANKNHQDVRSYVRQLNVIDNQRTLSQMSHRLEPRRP
#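 Normalized against a 6.5 mM cAMP agonist control, compounds were tested on 100 nM EPAC2 exchanging Rap1B-bound BODIPY-GDP (250 nM) for 50 uM GDP. Fluorescence drop (ex 480, em 540 nm) was tracked at room temperature over 30 min at 5-min intervals.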
# An asterisk follows results filed as active; ? = inconclusive; & = joins results of further samples; ! = not active in a repeat; [ ] = remark or other dose. Potency means the concentration at half of the fitted maximal effect.
SMILES,EPAC2 antag
COc1cccc(Nc2ncc3nc(-c4cn(C)c5ccccc45)c(=O)n(CCC#N)c3n2)c1,-0.7%
COc1ccc(-c2nc3cc(C)ccc3cc2CN(C(=O)c2csc(C)n2)C2CC2)cc1OC,-27.1%
N[C@H]1CONC1=O,-8.1%
Cc1cnc(C)c(-c2cccc3c2OC(CNC(=O)CN2C(=O)c4ccccc4C2=O)C3)n1 (stereo unspecified),?
COC(=O)C1CCN(Cc2ccc3c(c2)CN(C(=O)c2cc(C)oc2C)CCO3)CC1,-3.1%
COc1cc2c(C(=O)c3ccccc3)c3c4c(cc(OC)c(OC)c4c2cc1OC)CCN3C,-23.0%
COc1ccccc1CN1CCCC2(CCN(C(C)=O)CC2)C1,-14.5%
Cc1c(C(=O)N2CCCC2)sc2ncnc(NCCCN3CCOCC3)c12,?
CC1(C)CCC(C)(C)c2cc(NC(=O)c3ccc(C(=O)O)cc3)ccc21,?
COCCn1c(=O)c(-c2cc(F)cc(F)c2)nc2cnc(Nc3cccc(OC)c3)nc21,0.2%
CS(=O)(=O)N1CCC2(CCCN(c3ccncc3)C2)CC1,-11.6%
CC1(C)C(C=C(Cl)Cl)C1C(=O)OCc1cccc(Oc2ccccc2)c1 (stereo unspecified),?
O=P(O)(O)OP(=O)(O)OP(=O)(O)O,-2.6%
COc1cccc(CN2C(=O)NC(C)(C3CCN(Cc4cnn(C)c4C)CC3)C2=O)c1OC (stereo unspecified),?
CC(=O)N(CC(O)CN(C(C)=O)c1c(I)c(C(=O)NCC(O)CO)c(I)c(C(=O)NCC(O)CO)c1I)c1c(I)c(C(=O)NCC(O)CO)c(I)c(C(=O)NCC(O)CO)c1I (stereo unspecified),13.0%[56.6 µM]
COc1ccc(C(=O)N2CCC3(CC2)CN(c2ccccc2)C3)cc1,-31.7%
CCCCC/C=C\C/C=C\C/C=C\C/C=C\CCCCCC(=O)O,-27.7%[11.4 µM]
O=C(O)CCC/C=C\C[C@@H]1C(/C=C/[C@@H](O)COc2cccc(C(F)(F)F)c2)[C@@H](O)C[C@@H]1O (stereo partly specified),-7.4%[11.4 µM]
O=C(c1cccc(F)c1)N1CCC2(CC1)CN(c1ccncc1)C2,-27.2%
FC(F)(F)c1ccccc1-c1ccc2ncnc(NCc3cccnc3)c2c1,?
CCC1CN(CCNC(=O)c2ccc(C#CC(C)(C)O)cc2)Cc2cc(OC)ccc2O1 (stereo unspecified),-24.1%
C[C@@H](O)[C@H]1C(=O)N2C(C(=O)O)=C(S[C@@H]3CN[C@H](C(=O)N(C)C)C3)[C@H](C)[C@H]12,0.3%
COC(=O)c1cc(CNC(=O)c2cnsn2)cc(NC(=O)c2ccccc2OC)c1,0.3%
O=C1CCC[C@@H]2C[C@@]3(C[C@@H]4CCN1[C@H]24)Nc1cc(Cl)ccc1NC3=NCc1ccccc1,-23.9%
COCC(=O)Nc1cc(C(=O)N2CC3(C)CC2CC(C)(C)C3)c2c(c1)nc(-c1ccncc1)n2C (stereo unspecified),-17.3%
COc1ccc(-n2c(=O)c(-c3ccc(F)cc3)nc3cncnc32)cc1,-35.7%
COc1ccc(-n2c(=O)c(-c3ccc(F)cc3)nc3cnc(N4CCOCC4)nc32)cc1,2.6%
O=C(c1cc(C(F)(F)F)cc(C(F)(F)F)c1)N1CCC2(CCCN(c3ncccn3)C2)CC1,?
Cc1ccc2nccnc2c1,-15.7%
CN(C)CCC(c1ccc(Cl)cc1)c1ccccn1 (stereo unspecified),7.4%
CC(=O)OCC(=O)[C@@]1(O)CC[C@H]2[C@@H]3C[C@H](C)C4=CC(=O)C=C[C@]4(C)[C@H]3[C@@H](O)C[C@@]21C,-2.6%
CC(=O)N[C@@H](CSC/C=C(\C)CC/C=C(\C)CC/C=C(\C)CCC=C(C)C)C(=O)O,89.1µM*!
O=C(O)[C@@H]1C[C@@H](C(=O)O)N1,-7.2%&6.2%&-12.7%
CCCCCC1Nc2cc(C(F)(F)F)c(S(N)(=O)=O)cc2S(=O)(=O)N1 (stereo unspecified),-4.9%
O=c1cnc2cnc(OCc3ccccc3)nc2n1Cc1ccc(F)cc1,?
CN1CCC(=O)N([C@H](CSc2ccccc2)Cc2ccccc2)CC1,-17.2%
O=C1CCN(Cc2ccccc2)CCN1[C@H](COc1ccccc1)Cc1ccccc1,79.4µM*
CC(C)C(=O)Nc1ccc([N+](=O)[O-])c(C(F)(F)F)c1,?
O=C(CCc1ccc(O)cc1)c1c(O)cc(O)cc1O,-26.2%&-4.6%&-16.4%
CCCN(C/C=C/I)C1CCc2cccc(O)c2C1 (stereo unspecified),-28.2%
O=C(NCCc1ccccc1)[C@@H]1CC=C[C@@H]2CCN(Cc3ccc(Cl)c(Cl)c3)C(=O)[C@@H]21,?
COc1ccc2cc(CCC(C)=O)ccc2c1,15.8µM*!
N[C@@H]1CONC1=O,-15.2%&10.0%
CCCCCCCCCCCCCC(=O)OC(C)C,-34.2%
COC(=O)C1CCCCN1Cc1nc(N(C)C)c2ccccc2n1 (stereo unspecified),-32.0%
CS(=O)(=O)N1CCC2(CCCN(C(=O)Nc3cccc(C#N)c3)C2)CC1,-15.3%
O=S1(=O)CCOC[C@H](c2ccccc2)N1Cc1ccccc1F,?
O=C(c1cccc(F)c1)N1CCC2(CC1)CCN(c1ncccn1)CC2,-22.6%
Cc1cc2c(cc1C)N[C@]1(C[C@H]3CCCC(=O)N4CC[C@@H](C1)[C@@H]34)C(=NC1CCCCC1)N2,18.1%
Cc1noc(C)c1-c1cncnc1NCc1cccnc1,-10.5%
COc1ccccc1CN1CCC(n2cc(C(=O)N3CCCCC3)nn2)CC1,0.9%
Cn1cc(C(=O)[C@@H]2CCc3nc[nH]c3C2)c2ccccc21,-20.1%
CC(C)(C)NC[C@H](O)COc1nsnc1N1CCOCC1,-11.3%&14.9%&-11.4%
Cc1cnc(C)c(-c2cccc3c2OC(CNC(=O)C[C@@H]2C[C@@H](C)NC(=S)N2)C3)n1 (stereo partly specified),-26.6%
COCC(=O)Nc1cc(C(=O)NC2CCc3ccccc32)c2c(c1)nc(-c1ccncc1)n2C (stereo unspecified),?
NC(=O)Oc1ccc(Cc2ccccc2)cc1,?
COc1ccc(C(=O)c2ccc(O)cc2)c(O)c1O,-9.4%
CO[C@H]1[C@H](NC(=O)c2ccsc2)c2ccccc2C12CCN(Cc1c(O)ccc3ccccc13)CC2,-4.4%
O=C(Nc1cccc(F)c1)N1CCCC2(CCNCC2)C1,-17.2%
COc1ccc2[nH]c(I)c(CCNC(C)=O)c2c1,-8.8%&-29.6%
# Carrying on:
SMILES,EPAC2 antag
COc1ccc(NC(=O)N2CC[C@@]3(CCCN(C(=O)c4ccco4)C3)C2)cc1,-12.1%
O=C(CCc1ccc(O)cc1)c1c(O)cc(O)cc1O[C@H]1OC(CO)C(O)C(O)C1O (stereo partly specified),-13.9%
O=c1c(-c2ccc(F)cc2)nc2cnc(Oc3cccc(Cl)c3)nc2n1C[C@H]1CCCO1,-20.2%
Cc1cnc(SCCN2CCOCC2)nc1C1CCCN(C(=O)c2cccc3c(C)c(C)[nH]c23)C1 (stereo unspecified),-15.4%
COc1ccc2c(c1)OCC(Cc1ccc(OC)c(O)c1)C2=O (stereo unspecified),?
CCC(C)(C)N=C(NC#N)Nc1cccnc1,-14.3%
NC(N)=N/N=C\c1c(Cl)cccc1Cl,-17.5%
Cc1c[nH]c2ccccc12,15.2%
Cc1nc(N=Nc2cc(S(=O)(=O)O)ccc2S(=O)(=O)O)c(COP(=O)(O)O)c(C=O)c1O,25.3%
N#CCCn1c(=O)c(CCc2ccccc2)nc2cnc(OCc3ccccc3)nc21,-25.8%
CC(=O)NCCNc1nc(-c2ccc(C(=O)N(C)C)cc2)nc2ccccc12,-7.3%
N#Cc1ccc(CN2CC3(CCN(C(=O)c4ccncc4)CC3)C2)cc1,-15.8%
COc1ccc2c(c1)-c1nc(-n3ncc(C(=O)N(C)C(C)c4ccon4)c3C3CC3)ncc1CC2 (stereo unspecified),-18.7%
NCCn1oc(=O)[nH]c1=O,-3.3%
COc1ccc(C(=O)Nc2ccccc2CCC2CCCCN2C)cc1 (stereo unspecified),11.8%
CC1(C)Oc2ccc3ccc(=O)oc3c2CC1O (stereo unspecified),-4.1%
COc1cc(/C=C/C(=O)N2CCN(CC(=O)N3CCCC3)CC2)cc(OC)c1OC,-11.7%
Cc1ccccc1-c1ccc2ncnc(NCc3cccs3)c2c1,?
OC1(c2cccnc2)CCN(Cc2ccc3c(c2)CN(Cc2ccsc2)CCO3)CC1,-2.7%
Cc1onc(-c2c(Cl)cccc2Cl)c1C(=O)NC1C(=O)N2C1SC(C)(C)C2C(=O)O (stereo unspecified),-7.9%
CC(C)c1c(O)c(-c2cc3c(c(C(C)C)c2O)CCC2C(C)(C)CCC[C@@]32C)cc2c1CCC1C(C)(C)CCC[C@@]21C (stereo partly specified),-18.5%
N[C@]1(C(=O)O)CCc2cc(C(=O)O)ccc21,-7.0%
FC(F)(F)c1ccccc1-c1nccc(NCc2ccccc2)n1,?
CC(C)[C@H](CO)Nc1nc(Nc2cc(N)cc(Cl)c2)c2ncn(C(C)C)c2n1,?

# 6 compounds picked at random from the list so far, as already listed:
SMILES,EPAC2 antag
COc1ccc(C(=O)Nc2ccccc2CCC2CCCCN2C)cc1 (stereo unspecified),11.8%
CC(C)[C@H](CO)Nc1nc(Nc2cc(N)cc(Cl)c2)c2ncn(C(C)C)c2n1,?
CC(C)c1c(O)c(-c2cc3c(c(C(C)C)c2O)CCC2C(C)(C)CCC[C@@]32C)cc2c1CCC1C(C)(C)CCC[C@@]21C (stereo partly specified),-18.5%
COc1ccc2c(c1)-c1nc(-n3ncc(C(=O)N(C)C(C)c4ccon4)c3C3CC3)ncc1CC2 (stereo unspecified),-18.7%
FC(F)(F)c1ccccc1-c1nccc(NCc2ccccc2)n1,?
N[C@]1(C(=O)O)CCc2cc(C(=O)O)ccc21,-7.0%

# Going on with the list:
SMILES,EPAC2 antag
COc1cc([C@@H]2c3cc4c(cc3[C@H](O)[C@H]3COC(=O)[C@H]23)OCO4)cc(OC)c1OC,30.3%&-11.1%&-14.7%
O=C(O)C1=CC(O)[C@@H](O)C(O)C1 (stereo partly specified),-9.3%
CC(C)(C)c1ccc(O)c(O)c1,-5.6%[239 µM]
Cc1ncc2c(c1CNC(=O)c1ccc3c(c1)OCO3)CCN(C(=O)c1csc3c1CCCC3)C2,-13.0%
COc1ncc2nc(-c3ccccc3)c(=O)n(CCc3ccccc3)c2n1,-10.4%
Clc1cc(Cl)c(OCC#CI)cc1Cl,?
CO[C@H]1C[C@H](O[C@H]2[C@H](C)[C@@H](O[C@@H]3O[C@H](C)C[C@H](N(C)C)[C@H]3OC(C)=O)[C@@H](C)C[C@]3(CO3)C(=O)[C@H](C)[C@@H](OC(C)=O)[C@@H](C)[C@@H](C)OC(=O)[C@@H]2C)O[C@@H](C)[C@@H]1OC(C)=O,-24.1%[56.6 µM]
O=C(CS)Nc1ccccc1,15.5%
CC1=NS(=O)(=O)c2cc(Cl)ccc2N1,?
Cc1cnc(CNc2ncnc3ccc(-c4ccccc4C(F)(F)F)cc23)cn1,-27.0%
CN1CCC(=O)N(CCSc2ccccc2)CC1,11.5%
COC(=O)C1CCN(c2nc(CN(C)C3CCOC3)nc3cc(OC)c(OC)cc23)CC1 (stereo unspecified),-5.6%
CCC(/C=C/C(C)C1CCC2C3CC=C4CC(O)CC[C@@]4(C)C3CC[C@@]12C)C(C)C (stereo partly specified),-5.4%
COc1ccc2c(c1)OC(C)CN(CCNC(=O)c1ccc(-n3cccn3)cc1)C2 (stereo unspecified),-27.8%
N#Cc1ccc(CN2CC[C@@]3(CCCN(C(=O)c4cc(C(F)(F)F)cc(C(F)(F)F)c4)C3)C2)cc1,?
O=C(O)C=Cc1ccc(Cn2ccnc2)cc1,-18.3%
CS(=O)(=O)c1ccc(Cn2c3c(c4cc(F)cc(F)c42)CCC[C@H]3CC(=O)O)cc1,?
O=c1c(CCc2ccccc2)nc2cncnc2n1-c1ccccc1,?
CN(C)Cc1ccccc1-c1cc(NCc2ccccc2)ncn1,-14.7%
C=CC(C1=CC(=O)C=CC1=O)c1ccc(O)cc1 (stereo unspecified),5.1%
COCc1c(C(=O)N2CCC(N3CCCCC3)CC2)cnn1-c1ncc(C)c(-c2cccs2)n1,5.7%
NC/C=C/C(=O)O,-1.5%&-8.3%&-10.2%&2.2%
COc1cc2c(cc1OC)C1C(=O)c3c(O)cc4c(c3OC1CO2)C=CC(C)(C)O4 (stereo unspecified),-19.7%
CCCCNC(=O)[C@@H]1CC=C[C@@H]2CCN(Cc3ccccc3)C(=O)[C@@H]21,12.8%
Cc1noc(C)c1C(=O)N1CCC2(CCCN(C(c3ccccc3)c3ccccc3)C2)CC1,?
Nc1ncn([C@@H]2O[C@H](CO)[C@@H](O)[C@H]2O)c(=O)n1,?
COc1ccc(C(=O)N2CCC3(CC2)CN(c2ccc(-c4ccccc4)cc2)C3)cc1,-17.4%
Cc1cc[n+](CCC2CCCCC2)c2ccccc12,-1.3%
Cc1cc2c(cc1C)NC1(C[C@H]3CCC(=O)N4CC[C@@H](C1)[C@@H]34)C(=NC(C)(C)CC(C)(C)C)N2 (stereo partly specified),?
C[C@@H]1O[C@@H](OC[C@H]2O[C@@H](Oc3c(-c4ccc(O)c(O)c4)oc4cc(O)cc(O)c4c3=O)[C@H](O)[C@@H](O)[C@@H]2O)[C@H](O)[C@H](O)[C@H]1O,10.7%
O=S(=O)(c1ccccc1)N1CCC[C@@]2(CCN(C(c3ccccc3)c3ccccc3)C2)C1,-18.3%
C[C@@H](CSc1ccccc1)CN1CC[C@H](C(C)(C)C)CCC1=O,?

# An excerpt from above in order of number of heavy atoms, falling:
SMILES,EPAC2 antag
Cc1noc(C)c1C(=O)N1CCC2(CCCN(C(c3ccccc3)c3ccccc3)C2)CC1,?
O=S(=O)(c1ccccc1)N1CCC[C@@]2(CCN(C(c3ccccc3)c3ccccc3)C2)C1,-18.3%
Cc1cc[n+](CCC2CCCCC2)c2ccccc12,-1.3%

# These rows are one share of the data (hit frequency here may not be typical).
